# Sfp inh – Sfp phosphopantetheinyl transferase inhibition; Q9F4F7; Biochemical Sfp PPTase activity, qHTS; Potency, µM, inactives show max response, negative = inhibition, most hits filed as inhibitors; 310,000 tested, 3.5% active; AID 1490; active = well fitted inhibition curve with a large enough effect; inconclusive = small, poorly fitted or top-dose-only effect, or another doubt; inactive = no such curve, though single readings can be large or run the other way;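 also: the enzyme is Sfp with the accession as filed and its product quenches rhodamine fluorescence; potency is read from the fitted curve at half-maximal effect; 0% = enzyme reaction without inhibitor and -100% = no enzyme wells; top concentration of the series not given in the record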
#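 Compounds were incubated with enzyme (final 15 nM) for 15 min at room temperature before substrate addition started the reaction. Fluorescence at 525 nm excitation, 598 nm emission was recorded immediately and after 30 minutes.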
# ClpP mod – qHTS Assay for Activators of ClpP | AID 651965, 2013 | ATP-dependent Clp protease proteolytic subunit (Bacillus subtilis (strain 168)), P80244 | purified B. subtilis ClpP, FRET peptide cleavage, 20 min | Potency, µM (doses to about 57.5 µM), inactives show top-dose activity change, negative = active | 340,000 tested, 1.9% active; active = well fitted falling curve with a large enough effect; inconclusive = small, poorly fitted or top-dose-only effect; inactive = no such curve, though single readings can be large or run the other way; also: potency is read from the fitted curve at half-maximal effect; the source files actives as falling curves though it sought activators and does not explain the sign; nearly all actives have a fitted effect of over 65% in size; many hits overshoot -100%
# Target sequence (P80244 whole entry, looked up): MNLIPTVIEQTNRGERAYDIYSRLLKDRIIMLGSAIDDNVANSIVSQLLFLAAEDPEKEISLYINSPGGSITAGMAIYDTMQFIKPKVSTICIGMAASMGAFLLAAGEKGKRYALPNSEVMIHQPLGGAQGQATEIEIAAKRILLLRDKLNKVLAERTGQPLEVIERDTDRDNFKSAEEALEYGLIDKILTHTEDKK
#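 Purified B. subtilis ClpP, 10 microg/mL final in Tris/HCl pH8 with KCl, BSA, glycerol and Tween-20, cleaved an Abz/nitrotyrosine-quenched decapeptide. Fluorescence (ex 320, em 430) was read at 0 and 20 min at room temperature. Delta was normalized to 5.8 microM ADEP and DMSO/no-enzyme controls.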
# gsp antag – antagonists of gsp mutant (McCune-Albright syndrome) | 340,000 tested, 0.4% active | gsp-mutant cells, cAMP HTRF, 30 min; control for the full effect not named in the record | Potency, µM (highest dose often 76.9 µM), for inactives: top-dose activity change, negative = inhibition, usual class: inhibitors | AID 624288; active = falling curve of any shape with a large fitted effect; inconclusive = falling curve, mostly with a smaller effect; inactive = flat or rising curve; cell line not stated here;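 also: intracellular cAMP measured with PDE inhibitor Ro 20-1724 present during compound exposure; potency is read from the fitted curve at half-maximal effect; % is scaled to controls: 0 for no effect and ±100 for the full control effect; nearly all actives have a fitted effect of over 65% in size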
#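 Cells in G418 medium, seeded 16-24 h, 37C; buffer exchange to DPBS + 1 mM CaCl2, 0.5 mM MgCl2, 0.05% BSA; cpds in DMSO + […] (300 uM stock), 30 min 37C; HTRF cAMP detection.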
# gsp ag – activates gsp, the McCune-Albright syndrome mutation | gsp mutant cells, cAMP HTRF, 30 min; control for the full effect not named in the record | 340,000 tested, 0.13% active | Potency, µM (highest dose often 76.9 µM), without a hit: at the highest dose activation (cAMP increase), most hits filed as activators; active = well fitted activation curve with a large enough effect; inconclusive = small, poorly fitted or top-dose-only effect, or another doubt; inactive = no such curve, though single readings can be large or run the other way; cell line not stated here;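 also: phosphodiesterase inhibitor Ro 20-1724 added with compounds to block cAMP breakdown; potency is read from the fitted curve at half-maximal effect; nearly all actives have a fitted effect of over 60% in size; about a fifth of the inactives were tested at one dose only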
#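 Cells stably selected in G418 were plated at 2000/well, grown 16-24 hr, then given compounds in DMSO with the PDE inhibitor […] (300 uM solution added) for 30 min at 37C; cAMP was read by HTRF.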
# Menin-MLL FL inh – inhibitors of human menin-MLL interaction, wild-type MLL peptide | FP activity change, % at 61.4 µM | Fluorescence polarization, fluorescein-MLL peptide displacement from menin | 290,000 tested, under 10 active; inconclusive = falling polarisation curve, or a change in total fluorescence; inactive = total fluorescence flat and polarisation flat or rising; no compound was filed as active; the % refers to the polarisation; negative = inhibition;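 also: % of control where 0% means no effect; inhibitors lower the polarisation; unlabelled MLL peptide was the positive control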
# D2 agonist – agonists of human D2 dopamine receptor (beta-arrestin); 360,000 tested, 0.084% active; activation, % (concentration not given with the values); DiscoveRx PathHunter D2 beta-arrestin, luminescence, 90 min; 100% = 57 uM dopamine signal; P14416; AID 624465; in the data active = activation above about 40%; inconclusive = about 15% to 40%; inactive = below about 15%; also: compound concentration not given in the record; the text of the record calls up to 30% inactive
# Target sequence (P14416 whole entry, looked up): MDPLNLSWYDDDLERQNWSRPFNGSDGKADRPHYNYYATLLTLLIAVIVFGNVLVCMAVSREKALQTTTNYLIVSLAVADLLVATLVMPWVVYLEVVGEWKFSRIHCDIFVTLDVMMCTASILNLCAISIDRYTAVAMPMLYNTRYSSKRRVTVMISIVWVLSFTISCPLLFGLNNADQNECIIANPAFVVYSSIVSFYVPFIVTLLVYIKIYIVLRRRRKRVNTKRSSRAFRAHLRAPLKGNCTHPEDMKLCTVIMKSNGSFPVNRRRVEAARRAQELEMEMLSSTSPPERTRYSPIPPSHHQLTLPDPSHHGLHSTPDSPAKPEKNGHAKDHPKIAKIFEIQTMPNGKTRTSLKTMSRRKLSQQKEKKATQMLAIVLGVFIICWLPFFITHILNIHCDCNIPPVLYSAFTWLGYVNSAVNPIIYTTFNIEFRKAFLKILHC
#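 DiscoveRx PathHunter D2 beta-arrestin cells (2,100/well) attached overnight, then compound-stimulated 90 min at 37 C in HBSS/10 mM HEPES/0.1% Tween-20 buffer; beta-galactosidase complementation read by luminescence after 1 h at ambient temperature. Dopamine 57 uM final (EC100) as control.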
# PINK1 expr mod – modulators of PINK1 expression | PINK1 immunofluorescence, high-content cytometry, 24 h | Potency, µM (doses to about 76.6 µM), for the others: at the top dose activation (PINK1 increase), most hits filed as activators | 410,000 tested, 0.2% active | AID 624263; active = well fitted activation curve with a large enough effect; inconclusive = small, poorly fitted or top-dose-only effect; inactive = flat fitted curve, though single readings scatter; cell line not stated here;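 also: potency is read from the fitted curve at half-maximal effect; % of control where 0% means no effect; nearly all actives have a fitted effect of over 65% in size; a mitochondrial uncoupler was the plate control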
#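 Measures PINK1 amount and localization on or inside mitochondria by immunofluorescence. Stable cells get compounds at 5 concentrations for 24 hours before fixation and staining; CCCP controls included.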
# An asterisk follows results filed as active; ? = inconclusive; · = no result given; & = joins results of further samples; [ ] = another dose, or the depositor's remark.
SMILES,Sfp inh,ClpP mod,gsp antag,gsp ag,Menin-MLL FL inh,D2 agonist,PINK1 expr mod
CCOc1cc(C(=O)OC(C)C(=O)Nc2ccccc2OC)ccc1OCC(=O)N1CCOCC1 (stereo unspecified),·,-4.6%,-24%,-1%,·,-1.3,0.7%
O=C(O)C1(Nc2ccc(Cl)cc2)CCCC1,·,·,5%,-6%,·,0.3,-1.3%
CC(C)Cc1ccc(S(=O)(=O)N2CCOCC2)cc1,9%,1.1%,14%,22%,1.9,-0.5,4.7%[38.3 µM]
CC(C)(C)S(=O)(=O)/C(C#N)=N/Nc1ccc(S(N)(=O)=O)cc1,8%,·,0%,0%,-3.0,-5.1,1.3%
CC(C)[C@@H](C(=O)NC1CC1)N1C(=O)N2CCc3c([nH]c4ccccc34)[C@@]2(C)C1=O,12%,-0.2%,6%,·,-1.3,-2.9,1.6%
Cc1ccc(OCc2nnc(SCC(=O)N3C(C)CCCC3C)o2)cc1 (stereo unspecified),4%,·,-8%,-30%[15.4 µM],-0.3,6.6,-0.3%
COc1ccc(-n2cnc3cc(C(=O)NCC4CCCO4)ccc32)cc1 (stereo unspecified),10%,-6.8%,3%,7%,-3.2,-3.1,4.8%
COc1ccc(CN2C(=O)c3cccc4cccc(c34)C2=O)cc1,18%,·,15%,3%[15.4 µM],5.0,-0.3,11%
Cc1ccc(SC/C(O)=C(\C#N)c2nc3ccccc3s2)cc1,10%,25µM*,?,-25%,1.9,1.6,?
O=C(O)c1ccc(NC(=O)c2ccccc2NC(=O)c2ccccc2Cl)cc1,22%,-1.4%,0%,5%[15.4 µM],5.6,-0.1,0.3%
COc1ccccc1Nc1nc(N)nc(-c2oc3ccccc3c2C)n1,6%,-25%,-9%,?,-6.8,-2.7,·
Cc1cc(C)cc(SCc2noc(C(=O)NCC3CC3)c2C(=O)NCC2CC2)c1,·,0.3%,-14%,·,·,-0.4,3.5%
CC(C)(CN1CCN(c2ccccc2)CC1)NS(=O)(=O)c1ccccc1,11%,·,-3%,4%[15.4 µM],-1.3,7.2,1.8%
O=C(CCCN=C1NS(=O)(=O)c2ccccc21)OCC(=O)c1ccccc1Cl,·,·,-9%,-11%[15.4 µM],·,-0.7,-1.3%
Cc1cc(C)cc(N2CN=c3s/c(=C\c4ccco4)c(=O)n3C2)c1,6%,-0.3%,-3%,5%[15.4 µM],9.2,-1.9,-1.5%
COc1ccc(C2CC(c3cccs3)=NN2C(=O)CSc2nc(=O)n3ccccc3n2)cc1 (stereo unspecified),·,1.0%,-10%,-10%,·,-4.4,1.0%
CCCCC1(Cc2cccc([N+](=O)[O-])c2)C(=O)N(c2ccccc2)N(c2ccccc2)C1=O,15%,0.9%,-24%,?,1.1,-3.2,0.9%
CC(C)c1ccc(C(=O)N2CCCC(c3cc(C(=O)Nc4ccc5c(c4)OCO5)no3)C2)cc1 (stereo unspecified),·,-1.0%,·,·,·,9.8,4.5%
CS/C(=N\S(=O)(=O)c1ccc(N)cc1)NS(=O)(=O)c1cccs1,19%,-2.5%,9%,?,4.3,0.6,0.5%
Cc1cc(C)n2nc(SCc3c(F)cccc3Cl)nc2n1,-4%,-0.8%,0%,25%,-3.5,1.9,0.9%
CC1CC(C(F)(F)C(F)(F)F)n2nc(C(=O)O)cc2N1 (stereo unspecified),-16%,-1.7%,7%,-2%,-2.3,0.8,3.3%
CCCN1CCCc2cc(CN)ccc21,?,?,-11%,-3%,?,3.6,?
CCN(CC(=O)Nc1c(F)cccc1F)C(=O)Cc1c[nH]c2ccccc12,·,-1.5%,3%,-2%,·,3.5,0.4%
CCCCN(C(=O)c1oc2ccc(OCC)cc2c1C)c1c(N)n(CCCC)c(=O)[nH]c1=O,·,1.7%,-5%,4%,·,0.2,11%
C=CC[N+]1(CC(=O)NCc2ccc(NC(C)=O)cc2)CCOCC1,7%,·,11%,18%,0.6,-3.3,-0.4%
Cc1ccc(-c2cc(C(F)F)n3ncc(C(=O)Nc4c(C)nn(Cc5ccccc5Cl)c4C)c3n2)cc1,-13%,3.1%,-5%,-75%[inhibitor],0.3,-2.9,-0.9%
C=CCN1c2ccccc2C(=O)C(C)S1(=O)=O (stereo unspecified),·,-0.5%,-2%,·,·,-3.9,-1.5%
Cc1ccccc1CSc1ncnc2ccccc12,-5%,·,-7%,-13%[15.4 µM],-1.9,5.6,8.2%
O=C(NNC(=O)c1cccnc1)Nc1ccc([N+](=O)[O-])cc1,?,0.0%,-7%,15%[15.4 µM],5.1,-4.8,1.6%
CCc1nc2sc3c(c2c(=O)n1NC(=O)CCl)CCCC3,22%,2.7%,1%,-9%,0.9,-3.5,-0.3%[38.3 µM]
COc1ccc(-c2c(C)nn3c(N4CCC(C(=O)NCCN(C)C)CC4)cc(C)nc23)cc1OC,4%,-1.7%,-2%,-1%,-0.5,-2.8,-21%[38.3 µM]
CS(=O)(=O)N(CC(=O)Nc1ccc2c(c1)OCO2)Cc1ccccc1,-1%,-0.6%,3%,-30%[inhibitor],0.9,3.2,-0.9%[38.3 µM]
COc1cc(/C=C(\C#N)C(=O)NC(C)C)ccc1OCc1ccc(C(=O)O)cc1,16%,·,-20%,-9%[15.4 µM],4.0,-0.7,-0.9%
O=C(CN1CCN(C(=O)c2cccc(F)c2)CC1)NC1CCCCC1,22%,2.0%,0%,20%,7.1,-5.9,2.1%
COc1cc(CN2C[C@@H](CO)O[C@@H](n3cnc4c(NCc5ccco5)ncnc43)C2)cc(OC)c1OC,·,-0.2%,·,·,·,-4.6,0.0%
CN1CC(c2ccccc2)C2(COc3ccccc3C2=O)C12C(=O)Nc1ccccc12 (stereo unspecified),18%,-2.5%,-10%,0%,4.6,0.5,3.0%
O=C(Nc1ccc2c(c1)OCCO2)NC1(C(F)(F)F)Oc2ccccc2O1,?,-6.0%,-6%,25%,-0.7,3.0,1.1%
O=C(O)c1ccc2nc(-c3ccccc3)sc2c1,24%,?,?,?,·,-0.1,-1.7%
O=C(c1c[nH]c(C(=O)N2CCN(Cc3ccccc3)CC2)c1)C1CCCCC1,13%,1.2%,-4%,0%,-7.7,-9.3,1.6%
O=C(NCCCN1CCOCC1)c1cnn2c(-c3ccccc3)cc(-c3ccccc3)nc12,-8%,16µM*,-8%,-14%,0.3,-7.4,3.8%
Cc1ccc(CNCCNCCO)s1,3%,1.0%,4%,4%[15.4 µM],-2.6,-5.1,-0.6%
O=C(NC1CCCc2ccccc21)N[C@@H](Cc1ccccc1)C(=O)O (stereo partly specified),12%,·,-13%,-7%,5.3,8.4,-0.3%
CCCN1CCC(=O)N(CCN=[N+]=[N-])CC1,8%,-1.6%&-0.3%,14%,·,-2.9,1.4,3.6%
Fc1ccc(Cn2c(-c3cscn3)nc3ccccc32)c(Cl)c1,16%,?,8%,?,4.5,-3.8,1.7%
O=C1/C(=C/c2ccccc2F)SC(=S)N1CC(=O)N1CCCCC1c1cccnc1 (stereo unspecified),-20%,0.0%,4%,-2%,·,-3.1,0.7%
COc1ccc(OC)c(N(CC(N)=O)S(=O)(=O)c2ccc(OC)c(OC)c2)c1,8%,-0.4%,-5%,-21%,1.1,-2.6,?
CCCCCNC(=O)Cc1ccc(S(=O)(=O)N2CCOCC2)s1,·,-2.2%,2%,-2%,·,-2.4,-1.4%
COCCCNC(=O)C1CCCCN1S(=O)(=O)c1ccc(F)cc1 (stereo unspecified),15%,1.4%,-3%,-3%,-4.4,0.2,-1.0%
CC1CCc2sc(C(=O)NCc3ccccn3)cc2C1 (stereo unspecified),·,·,-5%,31%[15.4 µM],·,-2.2,0.0%
CC1=CCC(C(=O)O)(C(=O)N/N=C/c2cccs2)C(c2ccc([N+](=O)[O-])cc2)C1 (stereo unspecified),7%,-0.4%,-4%,-29%,3.4,-1.3,-0.9%[38.3 µM]
CC(=O)c1cc(C)ccc1OC(=O)c1ccncc1,4%,-2.0%,0%,-2%,-5.0,-2.5,1.9%
O=C(NCCC1CCCCN1S(=O)(=O)c1ccccc1)C(=O)NCc1ccccn1 (stereo unspecified),·,-1.1%,3%,-5%[15.4 µM],·,-5.5,1.0%
Cc1ccc(-c2c3c(nc4sc(C(N)=O)c(N)c24)CCCC3)o1,32µM*,-3.1%,15%,8%,?,-0.3,0.5%
O=[N+]([O-])c1ccc(NN=C(C2CC2)C2CC2)c([N+](=O)[O-])c1,·,0.8%,·,8%,·,0.5,0.6%
CN1C2=CC=CC=CC2=[N+](C)C12C([N+](=O)[O-])=CC(=[N+]([O-])[O-])C=C2[N+](=O)[O-] (stereo unspecified),?,·,13%,14%[15.4 µM],-0.1,2.3,-0.7%
Cc1ccc(S(=O)(=O)N2C[C@@H]3CCCC[C@@H]3[C@@H](C)[C@H]2c2cn(Cc3ccccc3)c3ncccc23)cc1,·,-13%,-9%,·,·,-1.1,0.3%
COc1ccc(C(=O)NCc2n[nH]c(=S)n2-c2ccccc2)cc1OC,56µM*,-2.4%,5%,14%,-1.6,1.4,0.6%[38.3 µM]
CCCCOc1ccc(C(=O)N2CCNC(=O)C2CC(=O)OC(C)C)cc1 (stereo unspecified),5%,0.1%,0%,-23%,-6.9,-4.2,1.7%
CCCCOCCCn1c(-c2ccco2)nc2nc3ccccc3nc21,-12%,-4.8%,-4%,17%,?,-2.4,-0.8%
Oc1c(N=NC(=S)Nc2ccccc2F)c2ccccc2n1Cc1cccc(Cl)c1,11%,-1.5%,0%,-26%,2.5,1.4,1.1%
Cc1ccc(/C=N/n2cnc3sc4c(c3c2=O)CCCC4)o1,-5%,-2.7%,?,-95%[inhibitor],2.4,-2.3,·
CCc1nc2c(OCC(=O)c3ccc(F)cc3)cccn2c1N(C)C(=O)COc1ccccc1,·,-2.7%,·,·,·,2.7,0.7%
CC(=O)Nn1c(COc2ccccc2C)nc2ccccc2c1=O,4%,-3.1%,26%,-6%,7.9,-5.8,1.9%

# Screens deposited in PubChem BioAssay by National Center for Advancing Translational Sciences (NCATS).
